Screens as filed in PubChem.
gsp agonist – gsp mutant agonism | 340,000 tested, 0.13% active | gsp mutant cells, cAMP HTRF, 30 min; control for the full effect not named in the record | Potency, µM (titrated, usually from 76.9 µM), for inactives: top-dose activation (cAMP increase), hits mostly activators; active = well fitted activation curve with a large enough effect; inconclusive = small, poorly fitted or top-dose-only effect, or another doubt; inactive = no such curve, though single readings can be large or run the other way; cell line not stated here;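 also: phosphodiesterase inhibitor Ro 20-1724 added with compounds to block cAMP breakdown; potency is read from the fitted curve at half-maximal effect; nearly all actives have a fitted effect of over 60% in size; about a fifth of the inactives were tested at one dose only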
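Cells in DMEM/10% FBS with G418 were pretreated with compounds in DMSO plus […] (300 uM stock) for 30 min at 37C. cAMP was measured by HTRF (cAMP-d2 plus anti-cAMP antibody-K) after 30 min at room temperature.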
ClpP mod – qHTS Assay for Activators of ClpP; purified B. subtilis ClpP, FRET peptide cleavage, 20 min; Potency, µM (highest dose often 57.5 µM), without a hit: at the top dose activity change, negative = active; 340,000 tested, 1.9% active; AID 651965, 2013; active = well fitted falling curve with a large enough effect; inconclusive = small, poorly fitted or top-dose-only effect; inactive = no such curve, though single readings can be large or run the other way; also: potency is read from the fitted curve at half-maximal effect; the source files actives as falling curves though it sought activators and does not explain the sign; nearly all actives have a fitted effect of over 65% in size; many hits overshoot -100%
Target sequence (P80244 whole entry, looked up): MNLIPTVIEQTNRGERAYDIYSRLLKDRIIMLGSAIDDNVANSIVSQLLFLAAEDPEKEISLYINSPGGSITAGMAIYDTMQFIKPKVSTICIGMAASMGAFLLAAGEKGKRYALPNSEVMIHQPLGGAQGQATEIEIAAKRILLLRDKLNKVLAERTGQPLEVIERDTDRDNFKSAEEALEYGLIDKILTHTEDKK
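FRET quenching reversal measured ClpP activation: 10 microg/mL B. subtilis ClpP at pH 8 with the FRET-FV decapeptide, read at 430 nm after 320 nm excitation. The 20-min minus 0-min signal was scaled between DMSO/no-enzyme wells and ADEP (5.8 microM final).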
gsp antagonist – antagonists of gsp mutant (McCune-Albright syndrome). gsp-mutant cells, cAMP HTRF, 30 min; control for the full effect not named in the record. Potency, µM (series often up to 76.9 µM), inactives show top-dose activity change, negative = inhibition, usual class: inhibitors. 340,000 tested, 0.4% active; active = falling curve of any shape with a large fitted effect; inconclusive = falling curve, mostly with a smaller effect; inactive = flat or rising curve; cell line not stated here;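 also: intracellular cAMP measured with PDE inhibitor Ro 20-1724 present during compound exposure; potency is read from the fitted curve at half-maximal effect; % is scaled to controls: 0 for no effect and ±100 for the full control effect; nearly all actives have a fitted effect of over 65% in size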
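HTRF cAMP measurement after 30 min RT detection following 30 min, 37C compound treatment alongside […] (added as 300 uM solution) in G418-selected cells seeded at 2000/well and grown 16–24 h.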
TRPML1 ag – agonists of human TRPML1 channel. Q9GZU1. TRPML1-expressing cells, Ca2+ dye fluorescence, FDSS; host cell line not named in the record; reference of the full effect not given here. activation, % (no concentration beside the values). 410,000 tested, 0.12% active. AID 624414; in the data active = activation above about 50%; inconclusive = about 30% to 50%; inactive = below about 30%; also: 0% is about no effect; the text of the record puts the active cut at 80%
Target sequence (Q9GZU1 whole entry, looked up): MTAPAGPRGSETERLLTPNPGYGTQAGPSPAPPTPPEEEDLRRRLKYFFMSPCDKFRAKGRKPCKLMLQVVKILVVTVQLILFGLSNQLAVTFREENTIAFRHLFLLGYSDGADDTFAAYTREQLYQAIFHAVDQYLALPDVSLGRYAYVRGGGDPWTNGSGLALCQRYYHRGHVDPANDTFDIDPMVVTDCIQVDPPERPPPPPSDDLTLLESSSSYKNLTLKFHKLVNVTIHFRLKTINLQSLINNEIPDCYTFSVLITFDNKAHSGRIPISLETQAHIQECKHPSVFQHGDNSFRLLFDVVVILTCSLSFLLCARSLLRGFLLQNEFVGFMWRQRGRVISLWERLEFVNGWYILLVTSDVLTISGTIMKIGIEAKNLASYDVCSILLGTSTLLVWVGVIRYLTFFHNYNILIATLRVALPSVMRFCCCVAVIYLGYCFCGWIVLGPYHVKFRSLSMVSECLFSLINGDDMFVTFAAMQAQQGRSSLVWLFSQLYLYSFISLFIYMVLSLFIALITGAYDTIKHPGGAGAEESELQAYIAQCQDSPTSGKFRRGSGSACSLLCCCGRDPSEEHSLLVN
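Agonist activity was taken from a 110 s kinetic Ca2+ dye read on the FDSS after pinning compounds onto TRPML1-DL cells. The cells were seeded at 1,500/well with Tet inducer, incubated about 16 h, then dye-loaded at room temperature.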
Menin-MLL FL inh – inhibitors of human menin-MLL interaction, wild-type MLL peptide | Fluorescence polarization, fluorescein-MLL peptide displacement from menin | FP activity change, % at 61.4 µM | 290,000 tested, under 10 active; inconclusive = falling polarisation curve, or a change in total fluorescence; inactive = total fluorescence flat and polarisation flat or rising; no compound was filed as active; the % refers to the polarisation; negative = inhibition;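 also: % of control where 0% means no effect; inhibitors lower the polarisation; unlabelled MLL peptide was the positive control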
TRPML1 inh – inhibitors of human TRPML1 channel | Q9GZU1 | TRPML1-inducible cells, Ca2+ dye fluorescence, FDSS; stronger effect = lower value; inhibition of EC80 agonist-evoked calcium signal | activity change, negative = inhibition, % (concentration not given with the values) | 390,000 tested, 0.02% active | AID 624415; in the data active means activity change below about -50%; inconclusive means about -30% to -50%; inactive means above about -30%;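 also: stimulus is agonist 54-4 at its EC80 concentration; % is scaled to controls: 0 for no effect and ±100 for the full control effect; compound concentration not given in the record; the text of the record puts the active cut at -80%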
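TRPML1-DL cells, Tet-induced overnight (~16 h, 37 °C) at 1,500 cells/well, were loaded with Ca8 no-wash dye plus quencher for 45-90 min at room temperature. Compounds were pinned during FDSS kinetic reading; agonist 54-4 at EC80 (4 uM final) then added.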
Starred values were filed as active, the others as inactive; ? = inconclusive; nt = not tested or not shown; & = joins results of further samples; [ ] = remark or other dose.

canonical_smiles	gsp agonist	ClpP mod	gsp antagonist	TRPML1 ag	Menin-MLL FL inh	TRPML1 inh
CCc1cccc(N2C(=O)CS(=O)(=O)C23C(=O)N(Cc2ccccc2)c2ccc(C)cc23)c1 (centres undefined)	nt	0.1%	nt	0.7	nt	-4
C/C(=C\C(=O)c1ccccc1)NNC(=O)c1ccc(Cl)cc1	?	nt	-5%	0.8	1.9	-14
Cc1cccc(Cn2cccc2CNS(=O)(=O)c2ccc(Br)cc2)c1	nt	0.2%	nt	0.1	nt	-13
O=C(C1=C(O)C(=O)N(CCCn2ccnc2)C1c1cccc(Br)c1)c1ccco1 (centres undefined)	?	-2.6%	1%	0.3	nt	-9
Brc1ccc(CSc2ncn[nH]2)cc1	-2%	0.4%	32µM*	3.1	5.7	5
COCc1cc(C)nc(OCC(=O)N/N=C/c2ccc(O)cc2)c1C#N	-5%[15.4 µM]	-2.6%	-18%	-0.2	0.7	-16
O=C(c1ccc(NS(=O)(=O)c2ccc3[nH]c(=O)[nH]c3c2)cc1)N1CCCC(C(F)(F)F)C1 (centres undefined)	-1%	1.5%	9%	0.1	nt	1
CN(C)c1ccc(CNC(=O)c2sc3ncccc3c2-n2cccc2)cc1	nt	-6.2%	nt	1.5	nt	19
Cc1nc(SCc2ccc(F)cc2)c([N+](=O)[O-])[nH]1	2%[15.4 µM]	1.7%	-3%	-1.8	3.8	-8
COc1ccc(NS(=O)(=O)c2cccc(C(=O)NCC(c3ccc(OC)cc3)N3CCCC3)c2)cc1 (centres undefined)	-3%[15.4 µM]	28µM*	-8%	2.0	nt	17

Random excerpt: 2 entries already listed, in no set order.
canonical_smiles	gsp agonist	ClpP mod	gsp antagonist	TRPML1 ag	Menin-MLL FL inh	TRPML1 inh
Cc1nc(SCc2ccc(F)cc2)c([N+](=O)[O-])[nH]1	2%[15.4 µM]	1.7%	-3%	-1.8	3.8	-8
CCc1cccc(N2C(=O)CS(=O)(=O)C23C(=O)N(Cc2ccccc2)c2ccc(C)cc23)c1 (centres undefined)	nt	0.1%	nt	0.7	nt	-4

(cont.)
canonical_smiles	gsp agonist	ClpP mod	gsp antagonist	TRPML1 ag	Menin-MLL FL inh	TRPML1 inh
CN(C(=O)c1cccc(NC(=O)Cc2ccc(NC(=O)C3CCCN(C(=O)CCc4ccccc4)C3)cc2)c1)C1CCCC1 (centres undefined)	nt	-1.3%	-22%	3.5	nt	24
COc1ccc(NC(=O)Cc2nnc(SCC(=O)NC3CCCCC3C)n2C)cc1 (centres undefined)	-1%	nt	3%	0.3	nt	-3
CCCn1nnc(NC(=O)c2ccc(Cl)cc2Cl)n1	19%	1.4%	8%	0.2	-1.9	1
Cc1c(C(=O)N2CCN(Cc3ccccc3)CC2)oc2c1C(=O)CC(C)(C)C2	9%	nt	-12%	0.8	nt	-10
O=S1(=O)c2ccc(Br)cc2N2CCC[C@@H]2CN1Cc1ccccc1	nt	-2.0%	10%	0.7	nt	66
COc1ccc(OC)c(C2C(C(=O)c3ccco3)=C(O)C(=O)N2Cc2cccnc2)c1 (centres undefined)	?	1.7%	?	-0.7	nt	9
CC(=O)Cc1nsc(NC(=O)c2ccc(-c3ccccc3Cl)o2)n1	6%[15.4 µM]	-3.5%	-21%	0.2	3.7	4
CC(O)CN1CCN(C(=O)CN2C(=O)NC(c3ccccc3)(c3ccccc3)C2=O)CC1 (centres undefined)	13%	-0.8%	13%	-0.3	-0.2	0
C=CCn1c(SCC(=O)NCC2CCCO2)nc2scc(-c3ccc(OC)cc3)c2c1=O (centres undefined)	-1%	-1.7%	-26%	2.2	8.6	1
CCCN(CC(=O)Nc1cc(C)on1)CC(=O)Nc1ccc(F)c(F)c1F	?	-6.8%	-4%	1.2	nt	-15
Cc1ccc2c(=O)cc(C(=O)Nc3c(C)cccc3C)oc2c1	nt	1.2%	nt	0.9	nt	1
O=C(/C=C/c1ccco1)N(Cc1cccc(Cl)c1)C1CCS(=O)(=O)C1 (centres undefined)	3%[15.4 µM]	nt	-10%	1.1	14	6
CC(C)(O)[C@@H]1Cc2c(ccc3ccc(=O)oc23)O1	?	3.9%	6%	-0.2	-0.6	0
CN1CCN(C(=O)C2=C[C@H](c3ccc4c(c3)OCO4)C[C@H](OCc3ccc(CO)cc3)O2)CC1	-36%[inhibitor]	-1.6%	-1%	-0.3	0.5	-7
Oc1ccc(Br)cc1/C=N/N1CCCCC1	-7%	-0.9%	-10%	2.2	-1.4	15
CCc1nc(SC)ncc1C(=O)N1CCN(c2cc(C)ccc2C)CC1	nt	-3.4%	nt	3.8	nt	5
COc1cc(C(=O)O)cc(NC(=O)c2cccs2)c1OC	-2%	-2.3%	-6%	0.4	-0.2	0
O=C(/C=C/c1ccco1)NC(=S)Nc1ccccc1Br	23%	-0.9%	-6%	-0.5	3.5	-11
COC(=O)c1ccc(CSc2nnc(NC(=O)C3CC(=O)N(Cc4ccc(C)cc4)C3)s2)cc1 (centres undefined)	-5%	-1.6%	-13%	2.1	-1.3	-1
COc1ccc(OC)c(NC(=O)C(CCSC)NS(=O)(=O)c2cccs2)c1 (centres undefined)	6%	0.2%	1%	1.4&5.1	1.0	-17&-2
Cc1cc(C)n2nc(C(=O)OC(C)C(=O)c3ccccc3)nc2n1 (centres undefined)	2%	-3.1%	2%	-0.4	nt	-1
COc1ccccc1N1CCN(Cc2cc3c(cc2Br)OCCO3)CC1	-5%[15.4 µM]	-1.3%	-14%	-0.7	3.1	-16
CCCC(C)C(=O)Nc1ccc(C(N)=O)cc1 (centres undefined)	14%	1.0%	-6%	-0.7	2.2	0
COc1ccc(C(=O)C2CCCN(Cc3cn(C)nc3-c3ccccc3)C2)cc1F (centres undefined)	-65%[inhibitor]	-0.5%	-6%	-0.4	1.4	-8
COc1ccc(NC(=O)C(C)n2nc(-c3cc(C)ccc3C)c3c(c2=O)CCCC3)cc1 (centres undefined)	nt	1.7%	nt	1.1	nt	7
COc1cc(N/C(N)=N/c2nc(C)cc(C)n2)c(OC)cc1Cl	-46%[inhibitor]	1.2%	4%	2.5	-0.6	11
CCN(CC)S(=O)(=O)c1ccc(N2CCOCC2)c(NC(=O)COc2ccccc2)c1	0%	0.2%	-17%	1.2	5.8	1
Cc1ccc(S(=O)(=O)N(C)c2ccc(C(=O)O)cc2)cc1	-1%	-3.7%	-6%	1.9	4.3	11
COc1ccc(-n2c(=O)c3ccccc3c3ccccc3c2=O)cc1	1%	0.2%	5%	1.2	0.5	-11
O=C(CCc1ccccc1)NCc1ccc2c(c1)CCN2C(=O)c1ccc(Cl)cc1	nt	0.4%	nt	0.3	nt	-6
Cc1ccc(C(=O)Nc2ccc(N3CCN(C)CC3)cc2)cc1	-6%	nt	-9%	0.5	0.7	-5
O=C(O)c1cc2n(n1)C(C(F)(F)F)CC(C1CC1)N2 (centres undefined)	23%	-1.6%	10%	nt	-0.6	nt
COc1ccc(OC)c(NC(=O)c2nc(SCc3ccccc3F)ncc2Cl)c1	nt	2.1%&-1.0%	nt	0.0&-0.5	nt	-13
CCOc1ccc(NC(=O)CCC(=O)N/N=C2\CCCc3ccccc32)cc1	-4%[15.4 µM]	1.8%	0%	-0.5	nt	-7
O=C(COC(=O)CCSc1ccc(Cl)cc1)NCc1ccco1	1%[15.4 µM]	0.0%	-8%	-0.5	3.9	-1
CCCCn1c(N)c(N(CCOC)C(=O)c2ccc(N3CCCC3=O)cc2)c(=O)[nH]c1=O	-65%	-2.4%	11%	0.3	nt	-10
CCOC(=O)c1c(C)[nH]c(C)c1C(=O)COC(=O)/C=C/c1cccc(C(F)(F)F)c1	0%[15.4 µM]	1.8%	-21%	-0.5	0.9	10
O=C(NCc1ccc2c(c1)OCO2)c1cnc2ccccn2c1=O	?	-1.3%	1%	-0.4	12	5
O=C(CCCN1C(=O)/C(=C/c2cccs2)SC1=S)Nc1cccc(O)c1	-14%	nt	45µM*	1.3	1.9	0
Cc1ccc2oc(C(=O)NC3CCS(=O)(=O)C3)cc(=O)c2c1 (centres undefined)	?	-8.8%	16%	0.0	nt	-20
COc1ccc(CC(=O)Nc2nc3ccccc3s2)cc1S(=O)(=O)N1CCOCC1	5%	-0.1%	8%	-0.7	2.4	-2
CCc1nnc(NC(=O)CSc2nnc(-c3c[nH]c4ccccc34)n2CC)s1	-5%	1.3%	-13%	-0.8	4.2	13
CCCCN(C)c1nc(-c2ccco2)c2c(c1C#N)CC(C)(C)OC2	12%	4.8%	-3%	0.0	?	-13
COc1cc(/C=C(/C#N)c2ccc(C)cc2)ccc1Oc1ccc([N+](=O)[O-])cn1	-31%[inhibitor]	-2.4%	-11%	?	-1.4	-2
O=C(NNS(=O)(=O)c1ccc(Br)cc1)c1cccs1	14%[15.4 µM]	nt	1%	1.7	-2.1	-21
Cc1cccc([C@H](NC(=O)OC(C)(C)C)C(=O)OC(C)(C)C)c1	0%	-0.6%	-4%	1.1	nt	-16
CS(=O)(=O)N1CCN(C(=O)C2c3ccccc3Oc3ccccc32)CC1	-10%	-2.1%	-11%	0.6	6.0	-18
CNc1nc(-c2ccc3c(c2)CCN3C(=O)c2cccc(F)c2)cs1	?	0.3%	-25%	1.4	0.7	-4
Cc1ccc(S(=O)(=O)N2CCN(C(=O)CN3C(=O)NC(C)(c4ccc5ccccc5c4)C3=O)CC2)cc1 (centres undefined)	-8%	0.7%	-6%	0.7	nt	-9

An excerpt from above with just gsp agonist and TRPML1 inh.
smiles	gsp agonist	TRPML1 inh
CCN(CC)S(=O)(=O)c1ccc(N2CCOCC2)c(NC(=O)COc2ccccc2)c1	0%	1
O=C(COC(=O)CCSc1ccc(Cl)cc1)NCc1ccco1	1%[15.4 µM]	-1
CCCC(C)C(=O)Nc1ccc(C(N)=O)cc1 (centres undefined)	14%	0
C/C(=C\C(=O)c1ccccc1)NNC(=O)c1ccc(Cl)cc1	?	-14
O=C(CCc1ccccc1)NCc1ccc2c(c1)CCN2C(=O)c1ccc(Cl)cc1	nt	-6

Compounds as they come; about 2.1% have a hit in one of these screens.
